Source: PubChem (several laboratories)
RecA intein inh: Mtb RecA intein splicing inhibitors, primary screen, biochemical, fluorescence, HTS; Protein RecA (Mycobacterium tuberculosis (strain ATCC 25618 / H37Rv)), P9WHJ3; cell-free RecA intein splicing; inhibition, %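 (about 9 µM by stock and volumes)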; 290,000 tested, 0.75% active; in the data active = inhibition above about 30%; inconclusive = no clear call, values can overlap the other calls;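 note: 0% = vehicle wells and 100% = reference inhibitor control wells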
Target sequence (P9WHJ3 whole entry, looked up): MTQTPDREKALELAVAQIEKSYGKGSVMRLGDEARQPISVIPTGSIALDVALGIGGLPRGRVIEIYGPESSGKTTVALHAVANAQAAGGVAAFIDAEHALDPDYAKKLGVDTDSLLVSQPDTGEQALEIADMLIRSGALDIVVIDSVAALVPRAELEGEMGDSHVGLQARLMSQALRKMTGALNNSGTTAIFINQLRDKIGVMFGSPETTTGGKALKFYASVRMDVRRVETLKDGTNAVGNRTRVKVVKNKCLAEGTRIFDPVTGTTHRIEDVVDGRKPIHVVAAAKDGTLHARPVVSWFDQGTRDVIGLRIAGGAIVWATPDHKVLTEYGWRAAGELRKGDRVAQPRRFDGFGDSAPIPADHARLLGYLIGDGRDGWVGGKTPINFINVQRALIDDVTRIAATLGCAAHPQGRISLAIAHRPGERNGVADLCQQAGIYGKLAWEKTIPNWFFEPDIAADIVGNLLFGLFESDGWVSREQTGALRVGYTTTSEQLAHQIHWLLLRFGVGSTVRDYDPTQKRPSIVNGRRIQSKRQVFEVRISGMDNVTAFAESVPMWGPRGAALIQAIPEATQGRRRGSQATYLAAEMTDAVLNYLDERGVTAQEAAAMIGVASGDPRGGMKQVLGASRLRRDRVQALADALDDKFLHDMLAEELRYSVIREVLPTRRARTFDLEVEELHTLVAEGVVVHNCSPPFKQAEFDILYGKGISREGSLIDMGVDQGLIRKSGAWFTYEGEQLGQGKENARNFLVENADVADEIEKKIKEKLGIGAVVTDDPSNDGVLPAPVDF
YopH PTP inh: YopH tyrosine phosphatase inhibitors, primary screen, biochemical, fluorescence Ex485/Em525. YopH tyrosine phosphatase [Yersinia enterocolitica]. inhibition, %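 (about 10 µM by stock and volumes)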. 140,000 tested, 0.16% active;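 active = inhibition of 50% or more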;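 note: controls were vehicle for no effect and minimum signal wells for full effect; inactives centre near -20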
Arbovirus inh: antivirals against arbovirus infection, primary screen, cell-based, full library, 10K replicate subset | arbovirus infection cell-based antiviral screen | AID 1251, 2008 | inhibition, % at 10 µM | 200,000 tested, 0.37% active;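 active = inhibition from about 30%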;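 note: bluetongue infection of BSR cells; cell survival read as ATP light after 72 h; 0% = infected wells without compound and 100% = uninfected wells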
Mtb betalactam: beta-lactam sensitization of Mtb H37Rv, H37Rv | M. tuberculosis H37Rv growth with meropenem, percent inhibition; hits of this screen are not shown here | inhibition, % at 25 µM | 330,000 tested, 0.27% active | AID 434955, 2010;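 active = about 74% or more and at least 40 points above the plate without the antibiotic, then above 30% in a dose series; inconclusive = first-round hits that could not be retested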;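 note: growth measured after seven days incubation then overnight dye step; 0% = bacteria only wells and 100% = bacteria with antibiotic; twin plates without the antibiotic show which effects depend on it; some results filed as inactive read as strong as hits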
Mtb H37Rv: M. tuberculosis H37Rv growth inhibitors, H37Rv strain (AID 1626). 220,000 tested, 0.95% active. inhibition, % at 10 µM, or IC50 in µM where a hit was titrated. M. tuberculosis H37Rv growth inhibition; higher % means a stronger effect;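 active = confirmed in a dose series; inconclusive = inhibition above 80% but not taken into the dose series; inactive = below 80% or under 30% at every dose of the series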;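 note: bacteria incubated seven days before Alamar blue readout; 0% = bacteria only wells and 100% = bacteria with antibiotic wells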
Arbovirus inh repeat: second read-out of Arbovirus inh, no call of its own (marks repeat the call); inhibition, %; measured here: 10K subset replicate screen; many hits read low in the repeat;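 first of two repeat runs on a subset; 0% = infected and 100% = uninfected wells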
* marks the source's active call; other numbers are inactive results; ? = inconclusive; · = not tested or not shown. A portion of the library; the hit share may differ from the screen's.

SMILES | RecA intein inh | YopH PTP inh | Arbovirus inh | Mtb betalactam | Mtb H37Rv | others
NC(=S)N/N=C/c1ccc(-c2cc(Cl)cc(Cl)c2)o1 | 9.8 | -4 | -21 | 3 | 12%
COc1ccc(/C=C2\N=C(C)OC2=O)cc1OC(C)=O | -1.7 | · | · | 6 | ·
COc1ccc(S(=O)(=O)CCc2nc3ccccc3s2)cc1 | -2.0 | -12 | 7 | -7 | -8%
CCc1c(C)nc2ncnn2c1NC1CCCc2ccccc21 (stereo not drawn) | 2.4 | · | 3 | 3 | 2%
COc1ccc(NC(=O)[C@H](C)NC(=O)[C@@H]2Cc3ccccc3CN2C(=O)OC(C)(C)C)cc1 | 2.1 | · | · | 1 | ·
CC(C)=CCN1CCC(n2nccc2NC(=O)c2ccccc2Cl)CC1 | -2.1 | · | · | -9 | ·
CCN(CCCNC(=O)C1CCN(S(=O)(=O)c2c(C)[nH]c(=O)[nH]c2=O)CC1)c1cccc(C)c1 | -1.0 | -6 | 5 | -6 | 5%
COc1ccc(/C(N)=N/O)cc1O | -2.0 | -20 | 0 | -2 | 3%
COc1ccc(-c2cc(C(F)F)n3ncc(C(=O)N4CCSCC4)c3n2)cc1 | -64 | 1 | -11 | -8 | 12%
CC(=O)Nc1ccc(CN2CCC(CO)(CCOc3ccccc3)CC2)cc1 | 0.8 | · | 3 | 11 | -4%
CN(CC(=O)Nc1ccccc1Br)C(=O)CCc1nc2ccccc2c(=O)[nH]1 | -1.7 | · | · | -6 | ·
O=C(CCC1CCCCC1)NC1=NCCS1 | 0.0 | -19 | 2 | -3 | 2%
COc1ccc(OC)c(NC(=O)CCNS(=O)(=O)c2cccc3nsnc23)c1 | 2.7 | · | · | -6 | ·
CC(=O)NCCC(=O)Nc1nc2c(ccc3ccccc32)s1 | -2.0 | · | · | -7 | ·
Cc1ncccc1C(=O)N1CCCC(CNC(=O)c2ccc(-c3ccccc3)cc2)C1 (stereo not drawn) | 0.7 | · | 4 | -3 | -7%
CC(=O)C1=C(O)C=C(c2ccco2)CC1c1ccco1 (stereo not drawn) | -3.0 | -54 | 3 | 2 | 4%
Cc1onc(-c2ccccc2Cl)c1C(=O)NCc1ccco1 | 2.1 | -30 | -2 | -9 | 0%
O=C(c1cc(-c2ccc(Cl)cc2)on1)N1CCN(c2ccccc2)CC1 | -1.5 | · | · | 4 | ·
N=C1SCC(=O)N1c1ncc(Cc2ccc(F)cc2)s1 | 7.3 | · | -39 | 90 | <0.2µM*
CCOc1ccc(NC(=S)N(CCN2CCOCC2)Cc2cc3cc4c(cc3[nH]c2=O)OCO4)cc1 | 0.3 | · | -6 | 6 | 65%
CC1CCN(C(=O)c2ccc(CSc3ccc(Cl)cc3)cc2)CC1 | 12 | -24 | 12 | 0 | -10%
CCN(CC)CCCN1C(=O)c2oc3ccccc3c(=O)c2C1c1cccnc1 (stereo not drawn) | -4.0 | 6 | 14 | -7 | -10%
CCC(=O)N1CCc2cc(OC)c(OC)cc2C1COc1ccc(OC)cc1 (stereo not drawn) | 0.9 | · | 18 | 5 | -6%
[N-]=[N+]=NC1C[C@H](n2ccc(=O)[nH]c2=O)O[C@@H]1CO (stereo partly drawn) | -0.6 | -34 | -1 | -6 | 1%
Cc1ccc(CNC(=O)C(NS(=O)(=O)c2cccs2)C(C)C)cc1 (stereo not drawn) | -1.9 | 5 | -18 | 0 | -3%
O=C(Nc1c(F)cccc1F)c1ccc2c(c1)CCN2S(=O)(=O)c1ccccc1 | 7.0 | · | · | 0 | ·
COc1ccccc1CNC(=O)c1ccc(CNc2c(N3CCCC3)c(=O)c2=O)cc1 | -0.3 | -8 | 0 | 4 | 14% | Arbovirus inh repeat=-4
Cc1cc2ncc(-c3ccc(Cl)cc3)cn2n1 | -0.7 | · | -2 | -6 | 4%
NC1=NC[C@@H](Cc2ccc(O)cc2)N1CCc1cc(C(F)(F)F)cc(C(F)(F)F)c1 | 5.0 | · | · | 68 | 12%
CC1(C)[N+]([O-])=C2C(=[N+]([O-])C1(C)C)c1ccccc1/C2=N\O | 3.9 | -15 | -4 | -9 | -2%
CCCCc1c(O)c2ccccc2n(CCCC)c1=O | -1.6 | -19 | 2 | 4 | -3%
N#Cc1cnn(-c2ncnc3sc(-c4ccccc4)cc23)c1N | 1.9 | -10 | -3 | 3 | -5%
NC(=O)C1CCCc2c1n(Cc1ccccc1)c1ccccc21 (stereo not drawn) | -0.2 | · | · | 2 | ·
COc1ccc2c(c1)c(C(=O)N1CCN(C)CC1)c(C)n2-c1ccccc1 | -0.7 | -17 | 8 | -16 | -17%
CSCC(C)N1CCC(N2CCC(C(=O)NCc3ccccn3)CC2)CC1 (stereo not drawn) | -1.9 | · | · | -4 | ·
c1ccc(-n2ccnc2)cc1 | 3.7 | · | · | -4 | ·
CCCCN(C(=O)c1c(C)noc1C)c1c(N)n(CCCC)c(=O)[nH]c1=O | -2.0 | · | · | -9 | ·
COC(=O)COc1ccc(S(=O)(=O)Nc2ccc3c(c2)OCO3)cc1 | 4.5 | -10 | -1 | 1 | -4%
c1ccc2c(c1)OCC(C1=NCCN1)O2 (stereo not drawn) | -4.4 | -37 | -3 | -7 | -16%
COc1ccc(CCNC(=O)CCNS(=O)(=O)c2cccc3nonc23)cc1OC | -1.1 | -23 | 4 | 1 | 2%
O=C(N(c1ccccn1)c1ccccn1)C12CC3CC(CC(C3)C1)C2 | 8.9 | · | 2 | -6 | 0%
COc1ccc(-c2nc(NC(C)=O)sc2-c2ccccc2)cc1 | 1.3 | · | -9 | 0 | 6%
Cn1c(Cl)c(/C=N/OC(=O)c2cccc(Cl)c2)c2ccccc21 | -0.9 | -20 | 2 | -4 | 21%
COCc1cc(/C=N\NC(=O)COc2ccc(Cl)cc2)ccc1OC | 0.8 | -28 | -5 | 2 | 1%
O=C(CSc1nc2ccccc2s1)Nc1cc(S(=O)(=O)N2CCOCC2)ccc1O | 2.7 | -37 | 3 | 1 | ?
O=C1C[C@@H](c2ccccc2)Oc2cc(O)cc(O)c21 | -1.2 | · | · | -5 | 5%
S=C(NCc1ccccc1)NC1CCCCC1 | -0.3 | · | 1 | 1 | -6%
O=C(CN1C(=O)CSc2ncccc21)Nc1ccccc1F | -0.1 | · | · | 1 | ·
CS(=O)(=O)c1ccc2nc(NC(=O)Nc3ccccc3F)sc2c1 | -4.5 | · | · | -1 | ·
COc1cc(CC(=O)Nc2ccc(Cl)c(C(F)(F)F)c2)cc(OC)c1OC | 7.5 | -41 | -25 | 0 | 7%
CCOc1ccc(CN(C)CC(=O)Nc2cccc3ccccc23)cc1OC | 14 | · | 10 | 13 | 6%
O=C(O)c1cc(-c2ccc(N3CCOCC3)cc2)nn1-c1ccccc1Cl | -2.4 | · | 16 | -3 | -4%
O=C(NCc1ccncc1)c1ccc(Cl)c(S(=O)(=O)N2CCCCC2)c1 | -1.3 | · | 4 | 4 | 0%
CC(Cn1cncn1)C(=O)N1CCN(S(=O)(=O)c2ccc(Cl)cc2)CC1 (stereo not drawn) | -4.0 | · | · | -2 | ·
COC(=O)c1c(NC(=O)C2CC2)sc2c1CCN(C(C)=O)C2 | 0.3 | 5 | 2 | 0 | -2% | Arbovirus inh repeat=-5
O=Cc1ccccc1Oc1ccccc1 | 0.8 | -37 | 4 | -10 | -10%
CCNC(=O)CSc1nnc(-c2cccs2)o1 | 3.3 | · | 17 | -1 | 7%
O=Cc1cccn1-c1ccc(O)cc1 | -2.9 | · | -1 | -5 | -11%
CC(=O)Nc1cccc(-c2nc3ccccc3s2)c1 | -0.1 | · | -12 | 5 | 0%
C/C(CC(=O)Nc1ccc(OCc2ccccc2)cc1)=N\NC(=O)C(=O)Nc1cccc(C)c1 | -1.2 | -24 | -3 | 58 | 66%
Continued.
SMILES | RecA intein inh | YopH PTP inh | Arbovirus inh | Mtb betalactam | Mtb H37Rv | others
CSc1n[nH]c(=O)n1-c1cccc(Cl)c1 | 0.8 | · | · | 0 | -1%
Cc1cccc(NC(=O)CCSc2nnc(Cc3ccccc3)o2)c1 | 0.9 | -33 | 1 | 97 | ?
Cc1ccc(CN(CC(=O)NCc2ccccn2)S(=O)(=O)c2ccccc2)cc1 | -2.5 | · | · | ? | ·
COc1ccc(/C=N/NC(=O)c2ccncc2)cc1[N+](=O)[O-] | -3.3 | · | 0 | 98 | ?
COc1ccc(NC(=O)CSC2=NC(=O)CC(C)=N2)cc1 | -2.2 | -49 | -2 | 2 | -7%
COc1ccc(OC)c(NC(=O)C(CC(C)C)NC(=O)C2CCCCC2)c1 (stereo not drawn) | 1.6 | -27 | 1 | 1 | -10% | Arbovirus inh repeat=-2
COc1cc(O)oc1C=Nc1ccc(C(F)(F)F)cc1 | · | 4 | -4 | 0 | -4%
CCN(CC)CCOC(=O)/C=C/c1ccccc1 | -0.4 | · | · | 1 | 0%
COCCNC(=O)C(c1ccc(O)cc1)N(C(=O)CCC(=O)Nc1nccs1)c1ccc(C)cc1 (stereo not drawn) | -4.9 | · | 6 | -3 | -8%
C=CCNC(=O)c1onc(CSc2ccccc2F)c1C(=O)O | -4.2 | -17 | 12 | -3 | 3%
Cc1ccn2c(NC3CCCCC3)c(-c3cccc(-c4cccc(Cl)c4)c3)nc2c1 | 21 | · | · | 99 | ·
CC(C)Oc1cccc(C(=O)C2CCCN(C(=O)c3ccnn3C)C2)c1 (stereo not drawn) | 1.5 | · | 5 | -5 | -4%
O=C(Nc1ccc(F)cc1)C1CC2CCC1C2 (stereo not drawn) | 3.6 | · | · | 1 | ·
CCCOC1CCCN(C(=O)c2ccc(OC3CCN(Cc4ccccn4)CC3)cc2)C1 (stereo not drawn) | 3.5 | · | · | 3 | ·
O=C(NCCc1ccccc1F)N[C@@H](Cc1ccccc1)C(=O)O | 0.4 | · | · | 2 | ·

Fetched by compound from above:
SMILES | RecA intein inh | YopH PTP inh | Arbovirus inh | Mtb betalactam | Mtb H37Rv | others
O=C(Nc1ccc(F)cc1)C1CC2CCC1C2 (stereo not drawn) | 3.6 | · | · | 1 | ·
COc1ccc(OC)c(NC(=O)C(CC(C)C)NC(=O)C2CCCCC2)c1 (stereo not drawn) | 1.6 | -27 | 1 | 1 | -10% | Arbovirus inh repeat=-2

New compounds follow.
SMILES | RecA intein inh | YopH PTP inh | Arbovirus inh | Mtb betalactam | Mtb H37Rv | others
Cc1ccc(CNC(=O)CNC(=O)c2ccco2)cc1 | -2.1 | · | · | -2 | ·
CS(=O)(=O)N(CC(=O)NCc1ccc2c(c1)OCO2)Cc1ccccc1 | -1.5 | 44 | 4 | -4 | -5%
COc1ccc(N(C(=O)Cn2nnc3ccccc32)C(C(=O)NCc2ccco2)c2ccncc2)cc1 (stereo not drawn) | 0.4 | · | · | 1 | ·
Cc1ccc(S(=O)(=O)Nc2ccccc2CNc2ccccn2)cc1 | 3.3 | -49 | -5 | -4 | 5%
CCCCN(CC)CCCNC(=O)c1cn(C)c(=O)c2c1c1ccccc1n2C | -0.4 | · | · | 3 | ·
COc1ccc(NC(=O)/C=C/c2ccc(OC)c(OC)c2)cn1 | 2.1 | · | 13 | 2 | 0%
Cc1scc(C(=O)Nc2ccon2)c1-c1ccccc1 | -2.6 | -23 | 3 | 28 | 10%

Among those listed so far, these contain fluorine:
SMILES | RecA intein inh | YopH PTP inh | Arbovirus inh | Mtb betalactam | Mtb H37Rv | others
COc1ccc(-c2cc(C(F)F)n3ncc(C(=O)N4CCSCC4)c3n2)cc1 | -64 | 1 | -11 | -8 | 12%
N=C1SCC(=O)N1c1ncc(Cc2ccc(F)cc2)s1 | 7.3 | · | -39 | 90 | <0.2µM*
O=C(Nc1c(F)cccc1F)c1ccc2c(c1)CCN2S(=O)(=O)c1ccccc1 | 7.0 | · | · | 0 | ·
NC1=NC[C@@H](Cc2ccc(O)cc2)N1CCc1cc(C(F)(F)F)cc(C(F)(F)F)c1 | 5.0 | · | · | 68 | 12%
O=C(CN1C(=O)CSc2ncccc21)Nc1ccccc1F | -0.1 | · | · | 1 | ·
CS(=O)(=O)c1ccc2nc(NC(=O)Nc3ccccc3F)sc2c1 | -4.5 | · | · | -1 | ·
COc1cc(CC(=O)Nc2ccc(Cl)c(C(F)(F)F)c2)cc(OC)c1OC | 7.5 | -41 | -25 | 0 | 7%
COc1cc(O)oc1C=Nc1ccc(C(F)(F)F)cc1 | · | 4 | -4 | 0 | -4%
C=CCNC(=O)c1onc(CSc2ccccc2F)c1C(=O)O | -4.2 | -17 | 12 | -3 | 3%
O=C(Nc1ccc(F)cc1)C1CC2CCC1C2 (stereo not drawn) | 3.6 | · | · | 1 | ·
O=C(NCCc1ccccc1F)N[C@@H](Cc1ccccc1)C(=O)O | 0.4 | · | · | 2 | ·
